Screens (PubChem)
VDR inh = Inhibitors of the vitamin D receptor (VDR): qHTS. Vitamin D3 receptor (Homo sapiens), P11473. VDR-SRC2-3 peptide fluorescence polarization, 2 h. Potency, µM, inactives show max response, negative = inhibition, usual class: inhibitors. 400,000 compounds, 0.93% hits; active = well fitted inhibition curve with a large enough effect; inconclusive = small, poorly fitted or top-dose-only effect, or another doubt; inactive = no such curve, though single readings can be large or run the other way; note: series mostly up to about 120 µM
Target sequence (P11473 whole entry, looked up): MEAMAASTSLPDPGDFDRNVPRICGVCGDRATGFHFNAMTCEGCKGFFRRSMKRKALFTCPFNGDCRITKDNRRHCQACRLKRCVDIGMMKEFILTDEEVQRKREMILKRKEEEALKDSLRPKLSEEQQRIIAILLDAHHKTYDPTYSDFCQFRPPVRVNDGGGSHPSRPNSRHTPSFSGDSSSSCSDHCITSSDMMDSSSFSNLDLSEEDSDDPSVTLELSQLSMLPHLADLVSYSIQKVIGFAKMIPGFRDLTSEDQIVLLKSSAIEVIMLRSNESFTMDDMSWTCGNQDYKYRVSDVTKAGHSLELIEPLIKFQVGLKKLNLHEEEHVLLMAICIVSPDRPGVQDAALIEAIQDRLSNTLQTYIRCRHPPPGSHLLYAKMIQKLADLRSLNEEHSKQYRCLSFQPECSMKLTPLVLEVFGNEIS
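Fluorescence polarization assay measuring small-molecule disruption of VDR binding to the coregulator peptide SRC2-3. Compounds were pin-transferred (23 nl) into the reagent mix and incubated 2 h at room temperature before reading.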
The depositor's hits bear a star; ? = inconclusive; & = joins results of further samples; ! = not confirmed by another sample. % is set by controls: 0 for no effect and ±100 for the full control effect; potency is the fitted concentration of half-maximal effect. The list is partial, so the mix of outcomes need not match the whole.

structure	VDR inh
CC(=O)N1CCN(c2ccc([N+](=O)[O-])cc2C=C2C(=O)NC(=O)NC2=O)CC1	6%
COC(=O)C1=Nc2ccccc2/C1=C\c1c(O)n(-c2cc(OC)ccc2OC)c(=O)[nH]c1=O	?
O=C(c1ccc(C(F)(F)F)cc1)C1CCCN(C2CCSCC2)C1 (stereo not given)	7%
COCCCn1c(N)c(C(=O)Nc2sc3c(c2C(=O)OC)CCCC3)c2nc3ccccc3nc21	-3%
COc1ccc2c3c1OC1CC(O)C=C[C@@]31CCN(C)C2 (stereo not given in full)	-4%
COc1ccccc1NC1(C#N)CCCCC1	-5%
O=[N+]([O-])c1cc(F)c(N2CCCC2)cc1Br	-7%
Cc1ccc(C(=O)C2CN3CCC2CC3)cc1 (stereo not given)	-1%

Retrieved by structure from the list above:
structure	VDR inh
O=C(c1ccc(C(F)(F)F)cc1)C1CCCN(C2CCSCC2)C1 (stereo not given)	7%
COc1ccccc1NC1(C#N)CCCCC1	-5%
COC(=O)C1=Nc2ccccc2/C1=C\c1c(O)n(-c2cc(OC)ccc2OC)c(=O)[nH]c1=O	?
COCCCn1c(N)c(C(=O)Nc2sc3c(c2C(=O)OC)CCCC3)c2nc3ccccc3nc21	-3%
CC(=O)N1CCN(c2ccc([N+](=O)[O-])cc2C=C2C(=O)NC(=O)NC2=O)CC1	6%

Next part.
structure	VDR inh
O=C(O)[C@H]1[C@H]2CN[C@H](C(=O)O)[C@H]21	18%&6%
CC1=NN(c2ccccc2)C(=O)C1/C=C1\C(=O)NC(=O)N(c2ccc(C)c(C)c2)C1=O (stereo not given)	-9%
Cc1ccccc1CN1Cc2cnnn2-c2ccccc2C1C#N (stereo not given)	?
COC(=O)CC(NC(=S)N1CC2C[C@@H](C1)Cn1c2cccc1=O)C(=O)OC (stereo not given in full)	19%
O=C(NCC(c1cccnc1)N1CCN(c2ccc(F)cc2)CC1)Oc1ccccc1 (stereo not given)	4%
CCC(C)n1c(O)c(C=NCCN2CCOCC2)c(=O)[nH]c1=S (stereo not given)	-1%
COc1cc(CC(=O)N2C[C@H]3C[C@@H](C2)c2cccc(=O)n2C3)cc(OC)c1OC	-3%
COc1ccc(C[C@H]2NC[C@H](O)[C@H]2OC(C)=O)cc1	4%&0%

Of the compounds above, these contain sulfur.
structure	VDR inh
O=C(c1ccc(C(F)(F)F)cc1)C1CCCN(C2CCSCC2)C1 (stereo not given)	7%
COCCCn1c(N)c(C(=O)Nc2sc3c(c2C(=O)OC)CCCC3)c2nc3ccccc3nc21	-3%
COC(=O)CC(NC(=S)N1CC2C[C@@H](C1)Cn1c2cccc1=O)C(=O)OC (stereo not given in full)	19%
CCC(C)n1c(O)c(C=NCCN2CCOCC2)c(=O)[nH]c1=S (stereo not given)	-1%

Next part
structure	VDR inh
CC1CC(C)CN(CC(=O)c2ccc(OC(F)F)cc2)C1 (stereo not given)	-26%
COC(=O)C1=C(c2ccc(-c3ccccc3)c(F)c2)C[C@@H]2CC[C@H]1N2C(=O)NC1CCCCC1	6%
Cc1cccc(CN2C(=O)CN=C(c3ccccc3Cl)c3cc(Cl)ccc32)c1	2%
CC12CCC3C(CC=C4CC(O)CCC43C)C1C/C(=C\c1cccc(F)c1)C2=O (stereo not given)	-14%
Cc1cccc2c(CCN)c[nH]c12	1%
O=c1[nH]c(O)c(C=NC2CCN(Cc3ccccc3)CC2)c(=O)[nH]1	0%
Cc1ccc(-c2nn(Cc3ccccc3)cc2C=O)cc1	2%
CCN(CC)C(=O)c1ccc(NC(=O)c2cc(S(=O)(=O)N3CCCCCC3)ccc2OC)cc1	13%
COc1ccc(-n2c(SC)nc3ccccc3c2=O)cc1	12%
COC(=O)C1C2CC[C@@H](CC1OC(=O)c1ccccc1)N2 (stereo not given in full)	-21%
CCC1(CC)COP(=O)(OCC(Cl)CCl)OC1 (stereo not given)	-24%
CCOP(=S)(OCC)N1CC1	5%
CC(C)NCC(O)COc1cccc2[nH]ccc12 (stereo not given)	-1%&5%
C#C[C@@]1(O)CCC2C3CCC4=C/C(=N/OCC(=O)NC(CCC(N)=O)C(=O)O)CC[C@]4(C)C3CC[C@@]21C (stereo not given in full)	-25%
CCN(CC)C(=O)Cn1cc(C=C2C(=O)N(C)C(=O)N(C)C2=O)c2ccccc21	-8%
COC(=O)COc1ccc(Cl)cc1Cl	-1%
O=C1OC(c2ccc(Br)cc2)=N/C1=C\N1CC2CC(C1)c1cccc(=O)n1C2 (stereo not given)	-26%
OCCOCC#CCN1CCOCC1	5%
Cc1cccc(-n2c(CN3C(=O)c4ccccc4C3=O)nc3ccccc3c2=O)n1	6%
C=C1C[C@]2(O)[C@@]3(C)CCC(=O)C(C)(C)C3=C(O)C(=O)[C@@]2(C)[C@@H]2C(=O)O[C@@](C)(C(=O)OC)C(=O)[C@@]12C	-13%
CCOc1cc(/C=C2\C(=O)NC(=O)N(C)C2=O)cc([N+](=O)[O-])c1O	-27%
COc1ccc(N=C(C)c2c(O)[nH]c(=O)[nH]c2=O)cc1	8%
c1ccc(CCNCc2cccs2)cc1	2%
CCOC(=O)N(CC)c1ccc(C(O)(C(=O)OC)C(F)(F)F)cc1 (stereo not given)	5%
CC(=O)O[C@H]1CC[C@@]2(C)C(=CC[C@@H]3[C@@H]2CC[C@]2(C)C(=O)CC[C@@H]32)C1	-6%
Cc1cccc(-n2c(O)c(/C=C3/C(c4ccccc4)=Nc4ccccc43)c(=O)[nH]c2=O)c1	89µM*
CC(C)Oc1cccc(NC(=O)c2cccn(Cc3ccc4c(c3)OC(F)(F)O4)c2=O)c1	-1%
CCN(CC)P(=S)(c1c(C)nc2ccccn12)c1c(C)nc2ccccn12	?
CC(NC(C)(C)C)C(=O)c1cccc(Cl)c1 (stereo not given)	-10%&-6%&3%
COc1ccc(CCN(C)Cc2ccncc2)cc1OC	-5%
COc1c(C)cc(C(=O)C2CCCN(Cc3cccc(C)n3)C2)cc1C (stereo not given)	2%
COc1ccc(-n2c(-c3ccccc3[N+](=O)[O-])nc3ccccc3c2=O)cc1	?
COCc1c(CN)cnc(C)c1N	20%
COc1c2c(cc3c1OCO3)CCN(C)C2	-17%&-2%
C=C1[C@H]2CC[C@H]3[C@]4(C)C[C@H](O[C@H]5O[C@H](CO)[C@@H](OS(=O)(=O)O)[C@H](OS(=O)(=O)O)[C@H]5OC(=O)CC(C)C)C[C@@H](C(=O)O)[C@H]4CC[C@]3(C2)[C@H]1O	2%
O=[N+]([O-])c1cccc(CN2CC=C(c3ccc(F)cc3)CC2)c1	1%
CC(C)[C@H](NC(=O)N1C[C@H]2C[C@@H](C1)c1cccc(=O)n1C2)C(=O)Nc1ccccc1F	-18%
CC(N=Cc1c(O)n(C2CC2)c(=S)[nH]c1=O)c1ccccc1 (stereo not given)	0%
CC1(C)C(=O)[C@@H]2OC2[C@@]2(C)C1CC(O)[C@]1(C)C2CC[C@@]2(C)C(c3ccoc3)OC(=O)C3OC312 (stereo not given in full)	2%
CC(=O)Nc1ccc(C2CN(C)CC2C(=O)c2ccc(Cl)cc2)cc1 (stereo not given)	10%

Next compounds follow:
Structure	VDR inh
CSC1=NP(=S)(SC)N(C)c2nc3n(c21)CCC3 (stereo not given)	2%
COc1ccc(CC(=O)N(C)C2CCCN(Cc3ccccc3F)C2)cc1OC (stereo not given)	-10%
O=C1NCN(c2ccccc2)C12CCN(CC1COc3ccccc3O1)CC2 (stereo not given)	8%&3%
C=CCn1c(O)c(C(CC)=Nc2cccc(C(F)(F)F)c2)c(=O)[nH]c1=O	9%
CC(C)[C@H]1C(=O)O[C@@H]2CCN3CC=C(COC(=O)[C@](C)(O)[C@]1(C)O)[C@H]23	-9%
COC(=O)C1=C(c2ccc(Cl)c(C(F)(F)F)c2)C[C@@H]2CC[C@H]1N2C(=O)NCc1ccc2c(c1)OCO2	-4%
C[C@@]12CCC3C(CC[C@@H]4CC(O)CC[C@@]34C)C1CCC2O (stereo not given in full)	-4%
CCCOc1ccc(C(=O)NC(=S)N2C[C@H]3C[C@H](C2)c2cccc(=O)n2C3)cc1	-18%
COC(=O)c1ccc(C(C(=O)NC2CCCCC2)N(CCN2CCOCC2)C(=O)Cc2cccs2)cc1 (stereo not given)	15%
CC(=O)OC1CCC2(C)C(CCC3C4CC(N5CC5)C(C(C)=O)C4(C)CC(=O)C32)C1 (stereo not given)	-10%
COC(=O)C1=C(c2c(C)noc2C)C[C@@H]2CC[C@H]1N2C(=O)NC1Cc2ccccc2C1	-11%
O=C1c2ccccc2C(=O)N1SC1CCCCC1	20µM*
COC(=O)C1=C(c2ccc(-c3ccccc3)c(F)c2)C[C@@H]2CC[C@H]1N2C(=O)N1CCC(O)CC1	-6%
O=P(Nc1ccccc1)(Oc1ccccc1)Oc1ccccc1	-10%
O=c1cccc2n1CC1CC2CN(S(=O)(=O)c2cc(Cl)ccc2Cl)C1 (stereo not given)	-10%
CN(C)CCNC(=O)c1cccn(Cc2cccc(C(F)(F)F)c2)c1=O	?
CC1CCCCN1CC(O)c1c[nH]c2ccccc12 (stereo not given)	1%
CCN1CCN(C(=O)COc2ccc(S(=O)(=O)N3CCOCC3)cc2Cl)CC1	?
O=[N+]([O-])c1ccc(Cl)cc1	-18%
COc1cccc2c1N=C1CCCC3CN(C(C)=O)CCC123 (stereo not given)	11%
O=c1[nH]c(=O)n(-c2ccc(F)cc2)c(O)c1C=Nc1ccccc1N1CCCC1	17%
Cc1ccc(C(=O)Nc2ccc(-n3ccnc3P(=O)(O)c3ccccc3)cc2)cc1	7%
COc1cccc(-n2c(O)c(C=NCc3ccc4c(c3)OCO4)c(=O)[nH]c2=O)c1	-10%
CCOC(=O)c1c(-n2c(C)cc(/C=C3\C(=O)NC(=O)N(C)C3=O)c2C)sc2c1CCCC2	?
O=c1[nH]c(=O)n(-c2ccc(Br)cc2)c(O)c1C=NCCN1CCCCC1	6%
COC(=O)C1=C(c2cccc(C#N)c2)C[C@@H]2CC[C@H]1N2C(=O)NCc1ccc(F)cc1	0%
CCOS(C)(=O)=O	14%
CN1c2ccccc2Oc2ccccc21	-4%
CCC(C)N1C(=O)/C(=C/c2ccc3c(c2)CCN3CCCCl)C(=O)NC1=S (stereo not given)	1%
Cc1ccc2c(c1)CNc1ccccc1O2	10%
Cc1ccc(-c2nc3c(=O)n(C)c(=O)nc-3n(C)n2)cc1	-25%
NCC(=O)c1ccccc1	3%&13%
CCOc1ccc2c(c1)c(C(C)=O)c(C)n2Cc1ccco1	-2%
CCCOc1ccc2[nH]cc(C3=CCNCC3)c2n1	-27%
COC(=O)C1=C(c2ccc(OC(F)(F)F)cc2)C[C@@H]2CC[C@H]1N2C(=O)NCc1cc(C)oc1C(F)(F)F	-2%
CSCC[C@H](NC(=O)[C@H](Cc1ccccc1)NC(=O)CNC(=O)CNC(=O)[C@@H](N)Cc1ccc(O)cc1)C(=O)O	-1%
Cc1ccccc1NC(=O)c1cc(-c2ccccc2)n(CCCN2CCOCC2)c1C	-6%
N/C(=N\N=C/c1ccc(-c2ccc(O)c(C(=O)O)c2)o1)N[N+](=O)[O-]	-9%
COc1c(C)cc(C(=O)C2CCCN(Cc3cccc(O)c3)C2)cc1C (stereo not given)	10%
Fc1cccc(CCNCc2ccccn2)c1	-2%
c1ccc(CN2CC[C@@]3(CCCNC3)C2)cc1	?
CSc1ccc(C(=O)C2CCCN(Cc3cnc(SC)nc3)C2)cc1 (stereo not given)	22%
CCn1nc(-c2ccccc2)nc2c(=O)n(C)c(=O)nc1-2	6%
Cc1ccc(OCC(=O)N2CCN(Cc3cccnc3)CC2)cc1	9%
C=CCn1c(O)c(C(C)=Nc2ccc(N(C)C)cc2)c(=O)[nH]c1=O	?
NC(N)=N/N=C/c1cn(-c2ccccc2)nc1-c1cccs1	8%
[O-]/[N+](=C/c1cccnc1)c1ccc(Br)cc1	45µM*
COC(=O)C1=CO[C@@H](C)[C@H]2CN3CC[C@]4(C(=O)Nc5ccccc54)[C@@H]3C[C@H]12	-10%
O=P(NS(=O)(=O)c1ccccc1)(Oc1ccccc1)Oc1ccccc1	-3%
O=C1C=CC(=O)C(Cl)=C1	25µM*
Nc1cc2nc3ccccc3nc2cc1N	3%
COc1ccc(/C=C/C(=O)N2CC3C[C@@H](C2)Cn2c3cccc2=O)cc1OC	0%
C=CCN1C(=O)NC(=O)/C(=C/c2c(CCN(C)C(=O)c3ccccc3)cc3c(c2OC)OCO3)C1=O	-21%
O=C(O)c1ccc2[nH]cc(CCCCN3CC=C(c4ccccc4)CC3)c2c1	7%
O=C1NCCCCC1(Cl)Cl	-28%
CN(C)P(=O)(NC(=O)c1cccn1C)N(C)C	7%
CC1(C)CC(=O)C2=C(C1)NC(=O)C21C(C(=O)OC(C)(C)C)=C(N)Oc2ccc(Br)cc21 (stereo not given)	-6%
Cc1noc(C)c1CSc1nc2cc(S(=O)(=O)N3CCOCC3)ccc2o1	?
CC(C)Cc1nnc(NC(=O)CCC(=O)N2CCC3(CC2)OCCO3)s1	13%
COC(=O)C(O)(c1ccc(NC(=S)NC(=O)c2ccccc2)cc1)C(F)(F)F (stereo not given)	-8%

The listing continues:
Structure	VDR inh
CCc1cc(=O)oc2cc(OCC(=O)N3C[C@H]4C[C@@H](C3)c3cccc(=O)n3C4)ccc12	3%
Nc1c2c(nc3sc4c(c13)CCCC4)CCCCC2	-2%
COc1ccc(C2c3c(nc(C)[nH]c3=O)Oc3c2c(=O)oc2ccccc32)cc1 (stereo not given)	-16%
OC[C@H]1O[C@@H](n2cnc3cc(Cl)c(Cl)cc32)[C@H](O)[C@@H]1O	-1%
CCCCC/C=C\C/C=C\C/C=C\C/C=C\CCCC(=O)OC(CO)CO	35µM*!
O=S(=O)(c1ccc(F)cc1)N1CN2CCN(C2)C1	-10%
